STK33 kinase inh = inhibitors of human STK33 kinase; Q9BYT3; purified STK33, MBP phosphorylation, ADP-Glo luminescence; inhibition, % at 10 µM; 0.073% of 320,000 active; AID 2661;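 active = inhibition at or above 25%, using the most active replicate where run in duplicate; inactive = inhibition below 25%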
Target sequence (Q9BYT3 whole entry, looked up): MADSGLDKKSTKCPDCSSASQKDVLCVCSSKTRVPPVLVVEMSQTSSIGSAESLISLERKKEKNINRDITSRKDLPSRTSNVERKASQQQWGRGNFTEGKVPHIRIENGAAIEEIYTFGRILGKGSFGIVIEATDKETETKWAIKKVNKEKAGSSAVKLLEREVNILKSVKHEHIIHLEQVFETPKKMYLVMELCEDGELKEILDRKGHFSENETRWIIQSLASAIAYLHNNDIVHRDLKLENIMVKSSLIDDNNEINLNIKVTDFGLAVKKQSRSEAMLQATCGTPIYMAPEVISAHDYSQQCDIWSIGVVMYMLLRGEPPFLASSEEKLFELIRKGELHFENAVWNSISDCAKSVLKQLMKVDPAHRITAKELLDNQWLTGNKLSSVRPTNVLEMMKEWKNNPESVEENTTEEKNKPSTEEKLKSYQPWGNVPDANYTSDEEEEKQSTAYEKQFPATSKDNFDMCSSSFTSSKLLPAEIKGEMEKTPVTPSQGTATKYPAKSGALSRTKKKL
An asterisk follows results filed as active. The list is partial; most or all hits stand in other tables.

SMILES	STK33 kinase inh
O=C(O)CCC(=O)OC1CC2CCC1C2 (configuration not stated)	-0.8
CCCCc1c(C)c2cc(C)ccc2[nH]c1=O	2.4
COc1cccc(C(N)=O)c1OC(=O)Cc1ccccc1F	-1.4
COc1ccc(N2CC(C(=O)OCC(=O)c3ccccc3)CC2=O)cc1 (configuration not stated)	-2.5
CC(C)COc1ccc(C(=O)Nc2ncn[nH]2)cc1	1.2
Cc1ccc(NC(=O)OC(C)CNC(=O)Oc2cccc(C)c2)cc1 (configuration not stated)	-0.4
O=C(/C=C/c1ccc(S(=O)(=O)N2CCOCC2)cc1)NCc1ccccc1Cl	-0.1
COCCNC(=O)C(=O)c1cc(C)n(-c2ccc([N+](=O)[O-])cc2)c1C	0.1
CCC(C)c1ccccc1NC(=O)COC(=O)c1ccc(C)c(NC(=O)c2ccco2)c1 (configuration not stated)	0.2
COc1ccc(C(=O)NC(NC(=S)Nc2ccc(S(N)(=O)=O)cc2)C(Cl)(Cl)Cl)cc1 (configuration not stated)	1.9
Cc1cccc(C(=O)O/N=C2\CCSc3ccc(C)cc32)c1	-1.4
Cc1cc(C)n(S(=O)(=O)c2cccc([N+](=O)[O-])c2)n1	-0.6
O=C(CN1C(=O)c2ccccc2S1(=O)=O)NCc1ccccc1	-0.3
O=C(O)c1ccc(NC(=O)c2ccc(COc3ccccc3)o2)cc1	-0.9
CCc1cc(C(=O)N(CC(C)C)c2c(N)n(Cc3ccccc3)c(=O)[nH]c2=O)sc1C	-0.5
CC(C)C(=O)Nc1ncc(Cc2ccccc2Cl)s1	0.0
CCCC(C)NC(=O)CN(c1ccc2c(c1)OCCO2)S(=O)(=O)c1ccccc1 (configuration not stated)	-4.3
O=C1CN(C(=O)COC(=O)c2ccccc2NC(=O)c2ccco2)c2ccccc2N1	3.5
O=C(CC1C(=O)NCCN1Cc1c(F)cccc1Cl)NCCC1=CCCCC1 (configuration not stated)	-0.5
CCOC(=O)c1cn(CC(=O)Nc2ccc(C(C)C)cc2)nn1	2.1

An excerpt of these results, as comma-separated lines:
Structure,STK33 kinase inh
CCCCc1c(C)c2cc(C)ccc2[nH]c1=O,2.4
COc1cccc(C(N)=O)c1OC(=O)Cc1ccccc1F,-1.4
COc1ccc(N2CC(C(=O)OCC(=O)c3ccccc3)CC2=O)cc1 (configuration not stated),-2.5
CC(C)COc1ccc(C(=O)Nc2ncn[nH]2)cc1,1.2
Cc1ccc(NC(=O)OC(C)CNC(=O)Oc2cccc(C)c2)cc1 (configuration not stated),-0.4
O=C(/C=C/c1ccc(S(=O)(=O)N2CCOCC2)cc1)NCc1ccccc1Cl,-0.1

Additional compounds.
SMILES	STK33 kinase inh
N/C(=N\OC(=O)c1ccccc1Cl)c1ccccn1	13
COc1ccc(CN2CC(C(N)=O)Oc3ccccc32)cc1F (configuration not stated)	0.5
O=C(CO/N=C/c1ccc(OC(F)F)cc1)NCc1ccc(F)cc1	-1.8
Cc1ccc(C)c(N=C2NC(=O)CS2)c1	-0.8
Cc1cc(C)n2nc(C(=O)NCc3ccco3)nc2n1	-1.0
CCn1nc(C)c(C2C(C#N)=C(N)OC3=C2C(=O)CC(C)(C)C3)c1C (configuration not stated)	-0.5
O=C(Nc1ccccc1)Nc1ccc(Br)c(Cl)c1	1.2
CC1CCN(CC(O)COc2ccc(OCC(O)CN3CCC(C)CC3)cc2)CC1 (configuration not stated)	-1.4
CCOC(=O)C1CCN(C(=O)Cn2nc(C)n3c(cc4cc(F)ccc43)c2=O)CC1	-1.3
CC1CCC2(CC1)NC(=O)N(Cc1nnc(-c3cccs3)o1)C2=O (configuration not stated)	-0.7
COc1ccc(C2c3c(oc4ccccc4c3=O)C(=O)N2c2ccccn2)cc1OC (configuration not stated)	-1.6
CC(C)CN1C(=O)c2ccc(C(=O)Nc3ccc(O)cc3C(=O)O)cc2C1=O	-0.2
CN(CCc1cn[nH]c1)C(=O)CC1C(=O)NCCN1Cc1cccc(Oc2ccccc2)c1 (configuration not stated)	0.2
CC(OC(=O)[C@H](C)NC(=O)c1ccccc1Cl)C(=O)NCc1ccc2c(c1)OCO2 (some centres not stated)	-1.8
Cc1cc(N2CCCCC2)ccc1[N+](=O)[O-]	0.9
COc1cc(/C=N/NC(=O)COc2c(C)cc([N+](=O)[O-])cc2C)ccc1OC(=O)c1ccccc1	-1.7
O=C1CC2(CCCC2)CC(=O)N1c1ccccc1	-0.5
CCc1ccc(CN(C)C(=O)CCc2nnc(CCc3cccc(OC)c3)o2)nc1	-0.6
Cc1cccc(N(C(=O)c2snc(C(N)=O)c2N)C(C(=O)NCC2CCCO2)c2ccc(N(C)C)cc2)c1 (configuration not stated)	-0.9
COC(=O)c1ccc(NC(=O)c2ccccc2SC)cc1	-2.6
COc1ccc(N2CCN(C(=O)CSc3nnc4c(C)cc5cc(C)ccc5n34)CC2)cc1	-0.7
COc1ccc(OCc2nc(-c3ccc(F)c(F)c3)cs2)cc1	0.1
Cc1c(Br)c([N+](=O)[O-])nn1CC(=O)Nc1cccc2nonc12	-0.4
CCn1c(CC(=O)Nc2ccc(C)cc2)nnc1SCC(=O)Nc1nc(C)cs1	-2.0
COc1cc(/C=N/NC2=NS(=O)(=O)c3ccccc32)cc(OC)c1OC	-1.5
CCN(CC(=O)NCc1ccc(Cl)cc1)C(=O)/C=C/c1ccccc1	-0.5
COc1ccc(C(=O)Nc2ccccc2-c2nnn(CC(=O)NCc3ccco3)n2)cc1	-0.9
O=C(CCc1nc2ccccc2c(=O)[nH]1)OCCOc1ccc(Cl)cc1	-0.1
COCc1ccc([C@@H]2C[C@H]3CN(Cc4ccccc4C)C(=O)[C@]34CCCN24)o1	-1.8
Cc1ccc(S(=O)(=O)Cc2ccc(C(=O)N3CCN(c4cccc(C)c4C)CC3)o2)cc1	-0.6
CCN(CC)CCC(c1cc(OC)c(OC)c(OC)c1)c1c(OC)cc(OC)c2c(-c3ccccc3)cc(=O)oc12 (configuration not stated)	-0.3
Cc1ccc(S(=O)(=O)CCC(=O)Nc2nnc(-c3ccco3)o2)cc1	-0.3
Cc1ccc(S(=O)(=O)n2ccc3c2CCCC3=O)cc1	0.2
COC(=O)c1cc(CNC(=O)c2ccc(N3CCCC3)c([N+](=O)[O-])c2)ccc1OC	-1.2
CC1Cc2cc(S(=O)(=O)N3CCC(C(=O)N4CCN(c5ccccc5F)CC4)CC3)ccc2N1C(=O)C1CC1 (configuration not stated)	-1.1
O=C(NCc1nnc(SCC(=O)N2CCCCCC2)o1)c1ccccc1F	-2.2
Cc1ccc(S(=O)(=O)Nc2ccc(Oc3cccnc3)nc2)cc1	-1.2
O=C(O)c1cnc(-c2ccccc2)nc1Sc1ccc(Cl)cc1	2.0
CC(c1c(O)c2ccccc2[nH]c1=O)C1(C)CCC(O)C(C)(C)O1 (configuration not stated)	-1.0
COc1ccccc1NS(=O)(=O)c1ccc(NN=C2CCCCC2)c([N+](=O)[O-])c1	-1.8
COc1ccc(C(=O)Cn2cnc3ccc(Cl)cc3c2=O)cc1F	-2.2
CCN(CC)c1ccc(NC(=O)C2CCCN(S(=O)(=O)c3cnc[nH]3)C2)c(C)c1 (configuration not stated)	0.1
OC1OC[C@@H](O)[C@H](O)[C@H]1O (some centres not stated)	-1.5
COc1cccc2cc(C(=O)n3ccc(C)n3)c(=O)oc12	0.5
Cc1ccc(S(=O)(=O)N2CCC(C(=O)OCC(=O)N3CC(C)CC(C)C3)CC2)cc1C (configuration not stated)	0.1
COc1ccc(-n2c(SCC(=O)Nc3ccc(Br)cc3)nc(O)cc2=O)cc1	-4.5
Cc1ccccc1C(=O)OCC(=O)N(C)c1ccccc1	-1.1
CC(=O)c1ccc(Sc2nnc(C)s2)c([N+](=O)[O-])c1	-1.0
CCOCCOC(=O)c1[nH]c2c(c1C)C(=O)CC(c1ccccc1)C2 (configuration not stated)	0.2
C=CCC1(C#N)C(=S)NC(C)=C(C(=O)OCC)C1c1ccccc1 (configuration not stated)	0.2

Sorted by number of heavy atoms (lowest first): part of the list above.
SMILES	STK33 kinase inh
CC(=O)c1ccc(Sc2nnc(C)s2)c([N+](=O)[O-])c1	-1.0
Cc1ccccc1C(=O)OCC(=O)N(C)c1ccccc1	-1.1
CCOCCOC(=O)c1[nH]c2c(c1C)C(=O)CC(c1ccccc1)C2 (configuration not stated)	0.2

Entries above with a cyano group, in the order listed:
SMILES	STK33 kinase inh
CCn1nc(C)c(C2C(C#N)=C(N)OC3=C2C(=O)CC(C)(C)C3)c1C (configuration not stated)	-0.5
C=CCC1(C#N)C(=S)NC(C)=C(C(=O)OCC)C1c1ccccc1 (configuration not stated)	0.2

(list continues)
SMILES	STK33 kinase inh
Cn1nnnc1SCc1ccc(F)cc1	0.1
C=C1c2ccccc2NC(=S)N1Cc1ccc2c(c1)OCO2	0.8
COc1cc(NC(=O)c2cc(-c3ccco3)on2)c(OC)cc1Cl	-3.0
O=C(NNS(=O)(=O)c1ccccc1)c1cccc([N+](=O)[O-])c1	-1.2
COc1ccc(CCC(=O)Nc2nc(-c3ccncc3)cs2)cc1	1.0
Cc1ccc(NS(=O)(=O)c2cc(C(=O)NCc3ccccn3)ccc2Cl)cc1C	-1.5
COc1ccc(-c2nc3cccc(C)n3c2NCc2ccco2)cc1OC	0.9
COc1cccc(-c2cc(-c3cccnc3)c(C#N)c(N)n2)c1	-0.9
COc1ccccc1NC(=O)COc1ccc(C(=O)OCC(=O)N(C(C)C)C(C)C)cc1OC	-0.6
CCOC(=O)c1cc(NC(=O)Nc2nc3ccccc3s2)c(C)nc1C	-0.2
O=C1C2C3C=CC(C2C(=O)N1c1nccs1)C1C(=O)N(c2nccs2)C(=O)C31 (configuration not stated)	-0.7
O=C(Nc1ccccc1)Nc1ccc(S(=O)(=O)N2CCCCC2)cc1	-1.3
CC(=O)c1cccc(NC(=O)N2CCCC2C(=O)Nc2ccc3c(c2)OCCO3)c1 (configuration not stated)	0.4
COc1ccccc1N=C1SC(C(=O)Nc2ccc(F)cc2)CC(=O)N1C (configuration not stated)	-0.4
CCCNc1c(NS(=O)(=O)c2ccc(C(C)(C)C)cc2)c(=O)oc2ccccc12	0.1
CSC(C1CCCC1)n1nnc2ccccc21 (configuration not stated)	-1.7
Cc1ccc(-c2nnn(CC(=O)N(Cc3ccccc3F)C(C(=O)NC3CCCC3)c3ccncc3)n2)o1 (configuration not stated)	-1.0
Cc1ccc2nc3n(c2c1)CCCN3	-0.6
CCN(CC)S(=O)(=O)c1cccc(NC(=O)CSc2nc3ccccc3[nH]2)c1	-0.2
Cc1ccc(C(=O)N/C(=C/c2ccc(Cl)cc2)C(=O)NCC2CCCO2)cc1 (configuration not stated)	-1.2
COc1ccc(/C=C/C(=O)Oc2cc(C)[nH]c(=O)c2[N+](=O)[O-])cc1OC	-0.1
CC1=CC(C)(C)Nc2ccc(OC(=O)C(Cc3ccccc3)N3C(=O)C4CCCCC4C3=O)cc21 (configuration not stated)	-1.1
CC(C)(C)SCCNC(=O)CN(c1ccc(F)c(Cl)c1)S(C)(=O)=O	-0.1
O=C(COC(=O)c1ccccc1C(=O)c1ccccc1)NCCc1ccccc1	0.1
CCc1ccc(/C([O-])=C(/C(=S)NCCN2CCOCC2)[n+]2ccccc2)cc1	-0.7
CC(=O)NNc1ncnc2c1cnn2-c1ccc(C)c(C)c1	-0.8
COc1ccccc1Nc1cc(C(=O)N2CCc3ccccc3C2)c2ccccc2n1	-0.1
CC(C)CC(=O)NC(=S)Nc1ccc(N2CCN(C(=O)c3cccs3)CC2)cc1	0.8
CCc1nc(SCC(=O)Nc2ccc(N(C)C)cc2)n[nH]1	-0.7
CCOc1ccc(-c2ccc(NS(=O)(=O)c3cc([N+](=O)[O-])c(C)c([N+](=O)[O-])c3)cc2)nn1	-2.5

An excerpt of these results, with each value named.
SMILES: CC(C)(C)SCCNC(=O)CN(c1ccc(F)c(Cl)c1)S(C)(=O)=O
  STK33 kinase inh: -0.1

SMILES: O=C(COC(=O)c1ccccc1C(=O)c1ccccc1)NCCc1ccccc1
  STK33 kinase inh: 0.1

SMILES: CCc1ccc(/C([O-])=C(/C(=S)NCCN2CCOCC2)[n+]2ccccc2)cc1
  STK33 kinase inh: -0.7

SMILES: CC(=O)NNc1ncnc2c1cnn2-c1ccc(C)c(C)c1
  STK33 kinase inh: -0.8

Remaining list, next part:
SMILES	STK33 kinase inh
N#Cc1ccc(NC(=S)NCCN2CCOCC2)cc1	0.4
COc1ccc(-c2nc(-c3ccncc3)no2)cc1OC	0.6
COc1cc2c(cc1OC)-c1cc(Nc3cccc(C)c3)nc(=O)n1CC2	0.5
COc1ccccc1CNC(=O)Cn1cnc2ccccc2c1=O	-0.7
Cc1ccc2nc(/C(C#N)=C/c3ccc(-c4ccccc4C(=O)O)o3)[nH]c2c1	-0.4
Cc1oc(/C=N/NS(=O)(=O)c2ccccc2)cc1Br	-2.7
O=C(CSc1nnc(-c2cccnc2)o1)Nc1ccccn1	7.3
O=C(O)c1ccc(COc2ccccc2/C=C2\NC(=O)N(Cc3ccccc3F)C2=O)cc1	-1.3
CCC(=O)CCC(=O)c1ccc2ccccc2c1	-0.3
O=C(Nc1ccccc1[N+](=O)[O-])C1COc2ccccc2O1 (configuration not stated)	-1.5
Cc1ccc(CC(=O)N2CCN(C(=O)c3ccco3)CC2)cc1	0.1
COc1ccc(-n2cc(CNCC3CCOCC3)c(-c3cccc(F)c3)n2)cc1	0.2
COc1c(F)c(F)c(C(=O)Nc2cccc(Cl)c2N2CCOCC2)c(F)c1F	-1.4
O=C(CCN1CCN(CCO)CC1)Nc1ccc(Br)cc1	-1.5
CCOc1cc(/C=C2/NC(=O)N(Cc3ccccc3F)C2=O)ccc1O	-0.9
Cc1cccc([C@@H]2[C@@H]3C(=O)N(Cc4ccccc4)C(=O)[C@@H]3[C@]3(CC(C)C)C(=O)N(c4cccc(F)c4)C(=O)N23)c1	-1.1
COCC(C)n1c(SCC(=O)c2cc(C)n(C)c2C)nc2ccccc2c1=O (configuration not stated)	-0.5
O=C(CNC(=O)c1cccc(F)c1)N/N=C/C=C/c1ccccc1	1.3
COc1ccc(CCNC(=O)C(=O)NCC2OCCN2S(=O)(=O)c2ccc(Cl)cc2)cc1OC (configuration not stated)	-0.3
